PMP22 txn – PMP22 gene transcription modulation; S16 Pmp22-F2sN Schwann cells (luciferase reporters placed in the Pmp22 gene), FLuc/NLuc coincidence luminescence, 24 h; Potency, µM (titrated, usually from 57.5 µM), without a hit: at the top dose activity change, negative = inhibition, usual class: inhibitors; 43,000 compounds, 2% hits; AID 1508649; active = clear falling dose curves in both reporters; inconclusive = both reporters move, but less clearly or upward; inactive = either reporter flat; the % is the NLuc reporter signal; further: on the % scale 0 is the no-effect control and ±100 the full control effect; some results filed as inactive show a strong effect at the top dose
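Luminescent read-out of sequential FLuc and NLuc signals from a reporter embedded in the Pmp22 3' UTR of S16 Schwann cells, taken after 24 h compound exposure at 37C; compounds reducing both signals score as inhibitors of expression.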
HTT prom inh – inhibitors of huntingtin promoter activity. HEK293 HTT promoter firefly luciferase reporter (activity 0% = vehicle and -100% = no light), 24 h. Potency, µM (top dose mostly 57.5 µM), inactives show at the top dose activity change, negative = inhibition, hits mostly inhibitors. 48,000 compounds, 0.93% hits; active means well fitted inhibition curve with a large enough effect; inconclusive means small, poorly fitted or top-dose-only effect; inactive means no such curve, though single readings can be large or run the other way; further: nearly all actives have a fitted effect of over 50% in size
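Luminescence was read after Dual-Glo reagent and a 10 min room-temperature incubation. Values were normalized to vehicle (0% activity) and zero RLU (-100% activity). Reporter HEK293 cells had been exposed to compounds (up to 57.5 uM final) for 24 h.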
Starred values were filed as active, the others as inactive; ? = inconclusive; · = not tested or not shown; [ ] = dose if it differs, or a comment. Potency means the concentration at half of the fitted maximal effect.

Below each SMILES – PMP22 txn	HTT prom inh
Clc1ccc2nc(-c3ccc(N4CCOCC4)cc3)c(Nc3ccccc3)n2c1
 : ?	11.7%
COc1cc(-c2nc(-c3cccc(Cl)c3)c(-c3ccccc3)[nH]2)cc(OC)c1OC
 : ?	?
O=C1CSC2(C(=O)N(Cc3ccccc3F)c3ccccc32)N1c1ccc(F)cc1 (stereo not given)
 : ?	?
CCOC(=O)c1c(S(=O)(=O)N2CCC(C(=O)Nc3ccc(F)cc3F)CC2)c(C)n(C)c1C
 : 26.3%	-21.2%
COc1cccc(NC(=O)CCNC(=O)Cn2ccc3ccccc3c2=O)c1
 : -0.7%	-16.7%
COc1ccc2c(CNC3CCCCCC3)c(C(=O)O)n(Cc3ccccc3F)c2c1
 : -14.6%	-26.9%
Cc1ccc(Cl)cc1N1CCN(C(=O)Cn2cnc3nc4c(cc3c2=O)CCCC4)CC1
 : ?	?
CCOc1ccccc1C(=O)Nc1nnc(COC)s1
 : 5.7%	-1.9%
CSc1ccc(CNC(=O)Cn2ccc3cc(S(=O)(=O)N4CCCC4)ccc32)cc1
 : -39.8%	?
Cc1ccc(CNC(=O)CSc2nc3n[nH]c(C)c3c(=N)n2-c2ccccc2Cl)cc1
 : ?	-3.0%
CSCC[C@H](NC(=O)[C@H](Cc1c[nH]c2ccccc12)NC(=O)CCNC(=O)OC(C)(C)C)C(=O)N[C@@H](CC(=O)O)C(=O)N[C@@H](Cc1ccccc1)C(N)=O
 : ·	2.1%
O=C(CSc1nccn1Cc1ccc(F)cc1)Nc1ccc2c(c1)OCO2
 : -30.4%	-31.4%
COc1ccc(Cl)cc1NC(=O)Cn1cc(C(=O)c2ccc(C)cc2)c(=O)c2ccc(C)nc21
 : -27.3%	-0.5%
COc1ccc(NS(=O)(=O)c2ccc(-c3cnc(C4CC4)o3)cc2)cc1Cl
 : ?	?
Cc1ccccc1CNCCCSc1nnnn1-c1ccccc1
 : -5.4%	1.3%

New compounds follow
Below each SMILES – PMP22 txn	HTT prom inh
CC(C)Oc1ccc(CNC(=O)C2CCN(c3nc4ccccc4n(C)c3=O)CC2)cc1
 : -10.0%	6.9%
CCOc1ccc(-n2nc3ccc(NC(=O)c4ccc(C)cc4C)cc3n2)cc1
 : -42.4%	-2.3%
CCCCn1cc(S(=O)(=O)c2ccc(OCC)cc2)c(=O)c2cc(OC)c(OC)cc21
 : ?	-21.6%
Cc1ccccc1-c1nc(CNC(=O)Nc2ccccc2)c(C)o1
 : -21.6%	-1.9%
CCOc1ccccc1NC(=O)CN1c2ccccc2S(=O)(=O)c2ccccc21
 : 1.5%	-16.8%
CCc1ccc(Nc2ncnc3sc4c(c23)CCCC4)cc1
 : ?	-23.8%
COc1ccc(CNC(=O)CCCc2nnc3n(CCC(C)C)c(=O)c4sccc4n23)cc1
 : -4.1%	-4.2%
Cc1cccc(NC(=O)c2ccc3c(O)c(S(=O)(=O)c4ccccc4)c(=O)[nH]c3c2)c1C
 : 1.2%	-4.9%
CCNC(=O)c1c(NC(=O)c2cc(=O)c3ccc(C)c(C)c3o2)sc2c1CCCC2
 : -8.5%	7.5%
O=C(NCCc1ccccc1)c1ccc(Cn2c(SCc3ccccc3F)nc3cccnc32)cc1
 : ?	?
OC[C@H]1O[C@H](O[C@]2(CCl)O[C@H](CCl)[C@@H](O)[C@@H]2O)[C@H](O)[C@@H](O)[C@H]1Cl
 : ·	9.6%
Cc1ccc(-c2noc(-c3cc(-c4ccc(F)cc4)n[nH]3)n2)cc1
 : -12.7%	-11.6%
CCOc1ccccc1CNC(=O)Cn1nc(C)c2nn(-c3ccc(Cl)cc3)c(C)c2c1=O
 : -17.1%	-25.4%
Cc1ccc2[nH]c3c(=O)n(CC(=O)N(C)c4cc(Cl)ccc4C)ncc3c2c1
 : -6.4%	?
Cc1cccc(CS(=O)(=O)Cc2ccc(C(=O)NCc3ccccc3)o2)c1
 : -50.3%	?

Continuation.
Below each SMILES – PMP22 txn	HTT prom inh
COc1cccc(CNC(=O)Cn2c(=O)cc(C)c3c(C)nn(C)c32)c1OC
 : ?	?
Cc1ccc(NC(=O)/C(C#N)=C/c2ccc(C(C)C)cc2)cc1C
 : -15.5%	-13.2%
Cc1nc2ccccn2c(=O)c1NC(=O)c1ccc(F)c(F)c1
 : 12.4%	6.3%
CCOc1ccc(Nc2nc3cc(Cl)c(Cl)cc3nc2-n2nc(C)cc2C)cc1
 : -9.3%	-6.8%
CCn1cc(C(=O)NCc2ccc(C)cc2)c(=O)c2cc(S(=O)(=O)N3CCC(C)CC3)ccc21
 : -13.9%	-1.0%
Cc1cccc(C)c1OCC(=O)N(Cc1ccco1)Cc1ccco1
 : -14.0%	-12.7%
CCC(Cc1ccccc1)NC(=O)c1csc2c1CCCCC2 (stereo not given)
 : -18.5%	-9.6%
Cc1ccc2c(CC(=O)Nc3ccc(S(=O)(=O)N4CCCCC4C)cc3)coc2c1C (stereo not given)
 : -6.9%	?
COC(=O)c1scc(-c2ccc(C)cc2)c1S(=O)(=O)Nc1ccc(OC(F)(F)F)cc1
 : ?	0.0%
Cc1ccc(NC(=O)Nc2nnc(N3CCCC3)s2)c(C)c1
 : -8.9%	7.5%
CC(C)CC(=O)n1nc(-c2cccnc2)nc1NCc1ccc(F)cc1
 : -17.6%	-37.9%
CCc1ccc(C2=C(C)C(N3CCC(C(=O)NCCc4ccco4)CC3)=NS2(=O)=O)cc1
 : -17.8%	?
COc1ccccc1NC(=O)C1=C(C)Nc2nc3ccccc3n2C1c1cccc(OC)c1OC (stereo not given)
 : -7.7%	-4.7%
COc1ccc(NC(=O)c2c(C)oc3ccc(O)c(CN4CCN(Cc5ccccc5)CC4)c23)cc1
 : ?	-8.1%
Cc1nn(CC(=O)NCC(C)c2ccccc2)c(=O)c2cc3ccccc3n12 (stereo not given)
 : 0.7%	-4.5%

Quoted from above for reference:
Below each SMILES – PMP22 txn	HTT prom inh
COc1cccc(CNC(=O)Cn2c(=O)cc(C)c3c(C)nn(C)c32)c1OC
 : ?	?
Cc1ccc(NC(=O)/C(C#N)=C/c2ccc(C(C)C)cc2)cc1C
 : -15.5%	-13.2%
Cc1nc2ccccn2c(=O)c1NC(=O)c1ccc(F)c(F)c1
 : 12.4%	6.3%
CCOc1ccc(Nc2nc3cc(Cl)c(Cl)cc3nc2-n2nc(C)cc2C)cc1
 : -9.3%	-6.8%
CCn1cc(C(=O)NCc2ccc(C)cc2)c(=O)c2cc(S(=O)(=O)N3CCC(C)CC3)ccc21
 : -13.9%	-1.0%
Cc1cccc(C)c1OCC(=O)N(Cc1ccco1)Cc1ccco1
 : -14.0%	-12.7%

New compounds follow:
Structure	PMP22 txn	HTT prom inh
Cc1ccc(O)c(Nc2nc3ccccc3c3nncn23)c1	4.8%	-15.3%
CCOC(=O)c1ccc2c(c1)N(Cc1cccc(C(F)(F)F)c1)C(=O)c1ccccc1S2(=O)=O	-18.6%	-6.9%
Cc1cccc(N2CCN(C(=O)c3cccc(-n4c(C)nc5cccnc54)c3)CC2C)c1 (stereo not given)	?	?
CCC1Oc2ccccc2N(CC(=O)NCc2cc(OC)ccc2OC)C1=O (stereo not given)	-0.8%	-14.3%
CCS(=O)(=O)N1CCc2cc(C(=O)N3CCN(c4ccc(OC)cc4)CC3)ccc21	8.0%	-10.8%
Cn1c(/C(C#N)=C/c2ccccc2Br)nc2ccccc21	?	36.4%[activator]
COc1cccc(NC(=O)CSc2nc(-c3ccccc3Cl)nc3c2Cc2c(CO)cnc(C)c2O3)c1	-11.6%	-0.9%
COCCn1c(C)cc(O)c(C(c2ccc(Cl)cc2)N2CCN(c3ccccc3)CC2)c1=O (stereo not given)	-27.4%	-5.0%
Cc1cccc(N2CCN(S(=O)(=O)c3ccc(-c4cc(C(F)(F)F)on4)s3)CC2)c1C	-22.7%	-2.5%
COc1ccc(NC(=O)c2oc3ccc(S(=O)(=O)N(C)C4CCCCC4)cc3c2C)cc1	-3.6%	?

Later entries
Structure	PMP22 txn	HTT prom inh
COc1cc(OC)c(NC(=O)c2cc3c(s2)-c2ccc(Cl)cc2SC3)cc1Cl	-12.8%	-22.1%
COc1ccc(CNC(=O)c2ccc3nc(-c4ccc(F)cc4)c(-c4ccc(F)cc4)nc3c2)cc1	-6.8%	-4.2%
CC1=C(C(=O)Nc2ccccc2)C(c2ccc(F)cc2)n2nc(SCc3cc(C)ccc3C)nc2N1 (stereo not given)	1.9%	-10.5%
CCCCCN(CCC12CC3CC(CC(C3)C1)C2)C(=O)NCCCc1ccncc1	·	-5.2%
CCOc1ccc(OCC)c(NS(=O)(=O)c2ccc3c(c2)CCN3C(=O)C2CCC2)c1	-35.6%	?
Cc1ccc(C)c(-c2ccc(=O)n(Cc3ccc(F)cc3Cl)n2)c1	-42.0%	?
Clc1cc(Cl)cc(CNc2ncncc2-c2ccc3c(c2)OCO3)c1	·	-33.1%
COc1cccc(C(=O)N(Cc2ccco2)c2ccccn2)c1	-30.7%	-13.0%
O=C(CCCCn1c(=O)c2ccccc2n(Cc2ccccc2F)c1=O)NCc1ccc2c(c1)OCO2	?	-10.8%
CN1CCN(CCCNC(=O)c2ccc3nc(Cc4ccccc4)oc3c2)CC1	-25.1%	-8.4%

Next results follow:
Structure	PMP22 txn	HTT prom inh
Cc1ccccc1CCNC(=O)c1ccc2c(c1)nc1n2CCCCC1	4.4%	?
CC(=O)c1cccc(NC(=O)Nc2cc3c(cc2N2CCCC2)n(C)c(=O)n3C)c1	-27.5%	-3.2%
CN1CCN(C(CNC(=O)c2cccc(F)c2)c2ccc3c(c2)OCO3)CC1 (stereo not given)	-11.9%	-8.1%
Cc1cccc(NC(=O)CN2C(=O)C(c3ccccc3)=NC23CCC(C)CC3)c1 (stereo not given)	?	-24.6%
CCOC(=O)c1c(C)[nH]c(C)c1S(=O)(=O)N(C)CC(=O)N1CCN(c2ccc(Cl)cc2)CC1	-3.6%	?
CCc1ccc(-c2nc(CN3CCCC(C(=O)NCc4ccccc4Cl)C3)c(C)o2)cc1 (stereo not given)	?	?
Cc1cccc(-c2noc(-c3ccccc3OCC(=O)Nc3ccccc3[N+](=O)[O-])n2)c1	-31.3%	-8.0%
CCOc1cccc(C(=O)Nc2nnc(S(=O)(=O)N(C)c3ccc(C)cc3)s2)c1	-52.9%	-25.3%
COc1ccc(CNC(=O)CN(c2cc(C(F)(F)F)ccc2Cl)S(C)(=O)=O)cc1	-5.7%	-11.0%
CN(C(=O)C(=O)Nc1ccc2nc3n(c(=O)c2c1)CCCCC3)c1cccc(C(F)(F)F)c1	8.8%	-9.3%

The list continues:
Structure	PMP22 txn	HTT prom inh
Cc1ccc(N(C)C(=O)CCS(=O)(=O)c2cc3c(cc2Cl)NC(=O)CO3)cc1	?	-8.6%
Cc1cccc(N2CCN(C(=O)CCCn3c(=O)[nH]c4ccsc4c3=O)CC2)c1C	-38.4%	-10.6%
Cc1ccc(-c2nc(CS(=O)(=O)CC(=O)NCCc3ccccc3)c(C)o2)cc1	-5.7%	-2.7%
Cc1cccc(NC(=O)c2ccc3nc(CCc4ccccc4)oc3c2)c1C	-58.5%	28.6%
OCCCn1c(-c2ccc(F)cc2)csc1=Nc1ccc(F)cc1	?	?
Cc1cccc(N2CCN(C(=O)c3cccn4c(=O)c5cc(Cl)ccc5nc34)CC2C)c1 (stereo not given)	?	-2.9%
CCOC(=O)c1c(S(=O)(=O)N2CCCC(C(=O)N3CCN(c4cc(C)ccc4C)CC3)C2)c(C)n(C)c1C (stereo not given)	?	-12.6%
COc1ccc(CCNC(=O)CCn2c(=O)c3ccccc3n(CC(=O)Nc3ccc(C)cc3C)c2=O)cc1OC	-22.6%	-10.6%
COc1ccc(-c2onc(C)c2C)cc1S(=O)(=O)N1CCN(c2cc(C)ccc2C)CC1	-22.1%	3.5%
Cc1ccc(OCC(=O)Nc2nnc(SCc3cc(=O)c4ccccc4[nH]3)s2)cc1	12.4%	-12.4%

Next section
Structure	PMP22 txn	HTT prom inh
S=c1nc[nH]c2nc[nH]c12	·	?
O=[N+]([O-])c1ccc(C(c2sc3nc(-c4ccco4)nn3c2O)N2CCN(c3cccc(Cl)c3)CC2)cc1 (stereo not given)	?	-17.0%
CCOc1ccc(NC(=O)N2CCC(C(N)=O)(N3CCCCC3)CC2)cc1	-2.9%	-7.8%
COC(=O)c1sc2cccc(F)c2c1S(=O)(=O)NC(C)c1ccccc1 (stereo not given)	-30.4%	-2.0%
CCOc1ccc(NC(=O)CC2C(=O)N(c3ccc(F)cc3)C(=O)N2CCc2sccc2C)cc1 (stereo not given)	?	?
CCOC(=O)c1[nH]c(C)c(CCC(=O)NCc2ccc(CC)cc2)c1C	-13.9%	-26.4%
CCc1ccc(CN(Cc2ccco2)C(=O)c2cc(-c3ccc(Cl)cc3)on2)cc1	-6.4%	-38.4%
COC(=O)c1ccccc1NC(=O)c1cnc2c(-c3cccc(C)c3)c(C)nn2c1C	-7.0%	-12.4%
COCCCNC(=O)Nc1cc(C(=O)NCc2ccc(OC)cc2)ccc1N1CCCC1	-21.4%	2.6%
CCc1ccc(S(=O)(=O)c2nnn3c2nc(N2CCC(C(N)=O)CC2)c2cc(Cl)ccc23)cc1	?	-10.5%
Cc1ccc2c(c1)C(c1ccc(F)cc1)N(C(=O)COc1ccc(Cl)cc1Cl)CC(=O)N2 (stereo not given)	?	?
COc1ccccc1NC(=O)CSC1=Nc2ccccc2C2=NC(CCC(=O)NCc3ccco3)C(=O)N12 (stereo not given)	-6.5%	-9.9%
CCc1ccc(-n2nnc(-c3nsc(NC(=O)c4ccccc4Cl)n3)c2C)cc1	18.9%	-34.0%

Assay outcomes as filed in PubChem.
